Vaccinia mCherry: inhibitors of vaccinia virus infection (mCherry reporter signal). Potency, µM (series often up to 36.5 µM), for inactives: at the top dose activity change, negative = inhibition, hits mostly inhibitors. Vaccinia virus mCherry reporter infection, fluorescence; about a quarter of the inactives have no number. AID 720579. hit rate 0.63% among 310,000; active = well fitted inhibition curve with a large enough effect; inconclusive = small, poorly fitted or top-dose-only effect; inactive = no such curve, though single readings can be large or run the other way; tested in A549 cells; further: nearly all actives have a fitted effect of over 35% in size; inactives centre near -10
Vaccinia Venus: inhibitors of vaccinia virus (Venus reporter). Vaccinia virus Venus reporter expression, fluorescence. Potency, µM (series often up to 36.5 µM), for the others: top-dose activity change, negative = inhibition, usual class: inhibitors. hit rate 0.46% among 330,000; active means well fitted inhibition curve with a large enough effect; inconclusive means small, poorly fitted or top-dose-only effect; inactive means no such curve, though single readings can be large or run the other way; tested in A549 cells; further: nearly all actives have a fitted effect of over 30% in size; inactives centre near -10
* marks the source's active call; other numbers are inactive results; i = inactive; ? = inconclusive; . = not tested or not shown; & = joins results of further samples; [ ] = another dose, or the depositor's remark. On the % scale 0 is the no-effect control and ±100 the full control effect; potency means the concentration at half of the fitted maximal effect.

item	Compound	Vaccinia mCherry	Vaccinia Venus
1	C=C(C)COc1ccc(-c2n[nH]c(C)c2-c2ccc(Br)cc2)c(O)c1	?	?
2	CC(C)CCn1nc(C(=O)Nc2nc3c(s2)CCCC3)c2ccccc2c1=O	-13%	-5%
3	Cc1ccc(S(=O)(=O)N(C)c2ccc(C(=O)NCCc3ccccc3)cc2)cc1	-7%	-23%
4	Fc1ccc(-c2cc3ncc4c(n3n2)-c2cc(Cl)ccc2OC4)cc1	-28%	-23%
5	COc1ccc(/C=C/c2nc(-c3ccccc3O)n[nH]2)cc1OC	-42%	?
6	CCOC(=O)CSc1nc2ccc(NC(=O)COc3ccccc3C)cc2s1	-11%	12%
7	COc1ccc2nc(/N=C(\N)NC(=O)Nc3ccccc3)nc(C)c2c1	-3%	-22%
8	CCOc1ccc(NC(=S)NC(=O)c2c(Cl)cnn2CC)c([N+](=O)[O-])c1	i	-14%
9	Clc1ccc(CON/C=N/c2ncnc3sccc23)cc1	.	-25%
10	CCNC(=S)N/N=C/c1cccc(/C=N/NC(=S)NCC)c1	16%	9%
11	O=C(CCNS(=O)(=O)c1ccccc1)OCC(=O)c1ccc(Cl)cc1	-22%	-16%
12	COc1ccc(CC(N)c2csc(Nc3nc(C)cnc3C)n2)cc1 (configuration not stated)	41%[activator]	7%
13	CN(C)c1ccc(C(CNS(=O)(=O)c2ccc([N+](=O)[O-])cc2)N2CCCC2)cc1 (configuration not stated)	i	-23%
14	Cc1ccc2nc(NC(=O)c3cc(=O)c4cc(C)c(C)cc4o3)sc2c1	4%	-5%
15	COCCCNC(=O)CC(NS(=O)(=O)c1ccc(Cl)cc1)c1ccco1 (configuration not stated)	.	-19%

Later entries
item	Compound	Vaccinia mCherry	Vaccinia Venus
16	Cc1ccc(CC(=O)CCc2ccccc2)cc1	i	-12%
17	Cc1ccc(Cn2c(SC(C)C(N)=O)nc3ccccc3c2=O)cc1 (configuration not stated)	-9%	-1%
18	CCc1ccc(C(=O)c2cn(CC(=O)Nc3ccc(F)c(F)c3)c3cc(OC)c(OC)cc3c2=O)cc1	?	-29%
19	CCOC(=O)CC(NC(=O)C1c2ccccc2Oc2ccccc21)c1ccc(C)cc1 (configuration not stated)	-9%	0%
20	CC1=C(C#N)C(NC(=O)c2ccccc2)(C(F)(F)F)C(=O)N1 (configuration not stated)	0%	-4%
21	Cc1nn(C)c(C)c1N1C(=O)c2cccc3c(N)ccc(c23)C1=O	-16%	156%[activator]
22	CCc1ccc(CN(Cc2ccco2)C(=O)c2ccccc2Cl)cc1	-4%	-8%
23	Cc1ccc(C)c(NS(=O)(=O)c2ccc(OCC(=O)NCc3cccnc3)cc2)c1	-17%	-17%
24	O=C(Nc1cccc(C(F)(F)F)c1)/C(=C/c1ccco1)NC(=O)c1cccs1	-19%	12%
25	COc1ccc(N2C(=O)C3C(C2=O)C(C(=O)c2ccc(Cl)cc2)N2CCCC32)cc1 (configuration not stated)	-8%	17%
26	COc1cc(NC(=O)Nc2ccccc2OC)c(OC)cc1NC(=O)CN1CCCCC1	.	-26%
27	O=C(c1ccco1)N1CCN(C(=S)Nc2cccc([N+](=O)[O-])c2)CC1	i	-11%
28	O=C(Nc1ccc2[nH]c(=S)sc2c1)c1ccccc1	i	-8%
29	Cc1cccc(C2CC3(CC(C)(C)NC(=S)N3)Oc3cc(O)ccc32)c1 (configuration not stated)	?	-27%
30	Cc1cc2c(cc1C)C(=O)NC(C)(C)C2	-24%	-12%

(continued)
item	Compound	Vaccinia mCherry	Vaccinia Venus
31	Cc1nc(N2CCCC2)c2ccsc2n1	i	?
32	O=C(CC(c1cccs1)N1Cc2ccccc2C1=O)Nc1ccc(F)cc1F (configuration not stated)	-13%	-2%
33	CCc1nc(Sc2nc(C)cc(C)n2)c2oc3ccccc3c2n1	.	?
34	CCOC(=O)c1c(C)[nH]c(CCC(=O)NCCCN2CCN(c3ccc(F)cc3)CC2)c1C	-17%	-14%
35	COC(=O)c1nc2n(n1)C(c1cccc(Cl)c1)C1=C(CCCC1=O)N2 (configuration not stated)	i	0%
36	COc1ccccc1/C=c1/[nH]c(=O)/c(=C\c2ccccc2OC)[nH]c1=O	-1%	-11%
37	Cn1cnnc1Sc1ccc(C(=O)OCC(=O)NC2CC2)cc1[N+](=O)[O-]	2%	-4%
38	COc1cccc(-c2nc3c(c(C)nn3-c3ccccc3)c3cc(OC)c(OC)cc23)c1	-12%	-9%
39	CCc1ccccc1NC(=O)CN(C)C(=O)Cn1ncc(Cl)c(Cl)c1=O	?	?
40	O=C(NCCOc1nc(N2CCCCC2)nc(N2CCCCC2)n1)Nc1ccccc1	i	-21%
41	O=C(CN1CCCCCC1)Nc1ccccc1F	-11%	-8%
42	COCCNC(=O)c1cccc(OC2CCN(Cc3ccc(C(C)C)cc3)CC2)c1	-3%	-18%
43	O=[N+]([O-])c1ccc(N2CCCC2)cc1N/N=C1\CN2CCC1CC2	i	-10%
44	CC(C)c1ccc(NC(=O)COc2ccccc2)cc1	-16%	-11%
45	Cc1c(NC(=O)c2cc(-n3cnnc3)ccc2Cl)cccc1-c1nc2ccccc2o1	?	-18%

Quoted from above, compounds 44 to 45
item	Compound	Vaccinia mCherry	Vaccinia Venus
44	CC(C)c1ccc(NC(=O)COc2ccccc2)cc1	-16%	-11%
45	Cc1c(NC(=O)c2cc(-n3cnnc3)ccc2Cl)cccc1-c1nc2ccccc2o1	?	-18%

New compounds follow:
item	Compound	Vaccinia mCherry	Vaccinia Venus
46	N#Cc1c(NC(=O)CSc2ncn(-c3ccccc3)n2)sc2c1CCCC2	-10%	-7%
47	Cc1cc(NC(=O)CN(c2cccc(C)c2C)S(=O)(=O)c2ccccc2)ccc1Br	-14%	-11%
48	Cc1ccc(-c2nn(-c3ccccc3)cc2/C=N/NS(=O)(=O)c2ccccc2)cc1	-10%	-14%
49	CN1CCN(C(=O)/C(=C\c2cccc([N+](=O)[O-])c2)NC(=O)c2cccs2)CC1	-2%	-2%
50	CCCCCNC(=O)c1ccc(NC(=O)CC2SC(N3CCCC3)=NC2=O)cc1 (configuration not stated)	-15%	-11%
51	c1ccc(OCCN2CCNCC2)cc1	-7%	2%
52	Cc1nnc(SCC(=O)NCc2ccc3c(c2)OCO3)[nH]c1=O	2%	-10%
53	CCCOc1ccc(C2=NC(c3ccncc3)=Nc3ccc(C)cc3N2)cc1	-3%	1%
54	CCOC(=O)C1=CCN(S(=O)(=O)c2ccccc2C)C1c1cccc(C)c1 (configuration not stated)	42%[activator]	1%
55	CCC[C@@H](CN1CCC[C@H]1CN1C(N)=NC[C@H]1CC(C)C)N1C[C@@H](Cc2ccccc2)N(CCc2ccc(Cl)c(Cl)c2)C1=N	i	0%
56	O=C(c1ccc(Cl)cc1)C1CCCN(C(=O)c2csnn2)C1 (configuration not stated)	-2%	-1%
57	N#CC1=C(N)Oc2cc(N)ccc2C1c1ccccc1F (configuration not stated)	-21%	-29%
58	COc1ccc(OCC(=O)NNC(=O)C2CCCO2)cc1 (configuration not stated)	-6%	-10%
59	CCOc1ccccc1NC(=O)COC(=O)CN(C)S(=O)(=O)c1ccc(C)cc1	-11%	-5%
60	CCC(C)c1ccccc1NC(=O)C(C)OC(=O)c1ccco1 (configuration not stated)	-13%	-13%

Next entries.
item	Compound	Vaccinia mCherry	Vaccinia Venus
61	COc1ccc(N2CCN(S(=O)(=O)c3cc(C)ccc3OC)CC2)cc1	?	-4%
62	Cc1cccc(OCCn2c(CCCO)nc3ccccc32)c1	-19%	-13%
63	Cc1oc(-c2ccccc2)nc1CNS(=O)(=O)c1ccc(Cl)cc1	-12%	-9%
64	CCc1cc(Cl)c(OC)c(C(=O)NC[C@@H]2CCCN2CC)c1O	-4%&-6%	-19%&-19%
65	Cc1csc2nc(-c3cccc(NC(=O)c4ccc(S(N)(=O)=O)cc4)c3)cn12	-4%	0%
66	Cc1ccc(S(=O)(=O)N2CCC(C(=O)Nc3ccc(S(=O)(=O)N4CCCC4)cc3)CC2)cc1C	?	?
67	CCCC[C@H]1COCCS(=O)(=O)N1Cc1ccc(F)cc1	-6%&-2%	-9%&-11%
68	Cc1ccc(C(=O)N2CCCC(C(=O)c3ccc(Cl)cc3C)C2)cn1 (configuration not stated)	i	-1%
69	CCN(C)C1CN(Cc2cn(Cc3ccc(C)cc3)nn2)S(=O)(=O)C1 (configuration not stated)	i	-5%
70	COc1ccc(OC)c(-c2noc(N3CCN(c4cc(Cl)ccc4C)CC3)n2)c1	-16%	-15%
71	COc1ccc(NC(=S)NC(C)C(c2ccccc2)N2CCOCC2)cc1 (configuration not stated)	i	-16%
72	Cc1cccc2sc(N(CCN3CCOCC3)C(=O)CCS(=O)(=O)c3ccccc3)nc12	i	-10%
73	COc1cc(C(=O)N/N=C/C2CC=CCC2)cc(OC)c1OC (configuration not stated)	?	?
74	Cc1ccc(Cl)cc1N1CCN(C(=O)c2ccc(NC(=O)c3nsc4ccccc34)cc2)CC1	6%	-17%
75	COc1ccc(S(=O)(=O)Oc2ccc(C(=S)N3CCOCC3)cc2OC)cc1	-22%	-13%

Further results follow:
item	Compound	Vaccinia mCherry	Vaccinia Venus
76	Cc1ccccc1NS(=O)(=O)c1ccc2[nH]cc(C(=O)NC3CCCCC3)c(=O)c2c1	-5%[7.34 µM]	-4%[7.34 µM]
77	O=C(CCCl)Nc1cc(SCCO)cc([N+](=O)[O-])c1	-19%	-9%
78	CN(C)c1ccc(/C=N/N(CCC(=O)NC(C)(C)C)C2=NS(=O)(=O)c3ccccc32)cc1	-22%	6%
79	COc1ccc(C(=O)CCC(C)(C)[N+](=O)[O-])cc1OC	i	-12%
80	Cc1cc(NC(=O)c2ccc(NC(=O)c3cccs3)cc2)no1	23%	-8%
81	Cc1ccccc1S(=O)(=O)NC(=O)C1(C)CCN1C(=O)CCc1cccs1 (configuration not stated)	-5%	2%
82	C=CCc1cc(C=C2C(=O)N(C)C(=O)N(C)C2=O)cc(OCC)c1OCc1ccccc1	i	-15%
83	O=C(NC(Cc1ccccc1)C(=O)O)/C(=C\c1ccc(F)cc1)NC(=O)c1ccccc1 (configuration not stated)	.	5%
84	NC(=O)C1(Nc2ccc(C(=O)O)cc2)CCCC1	-7%	-3%
85	Cc1ccccc1S(=O)(=O)N(C)C[C@@H]1OCc2ccccc2-c2c(n(C)c3ccccc23)C(=O)N([C@H](C)CO)C[C@@H]1C	?	?
86	COc1ccccc1C(=O)NCC(=O)OCC(=O)c1ccc(Cl)s1	i	-11%
87	COc1ccc(C(=O)N(CCc2ccccc2)Cc2ccccc2)cc1S(=O)(=O)N1CCOCC1	-11%	1%
88	COc1ccccc1Nc1nc(-c2ccc(F)cc2)c2c(n1)-c1ccccc1OC2	-14%	-4%
89	C=CCn1c(=O)c2ccccc2n2c(SCC(=O)/C(C#N)=C(\C)N)nnc12	-18%&-16%	16%&-17%
90	CCC(=O)Nc1ccc(NC(=O)c2ccco2)cc1	-1%	-4%

Later entries
item	Compound	Vaccinia mCherry	Vaccinia Venus
91	COc1ccc(S(=O)(=O)N2CCCCC2)cc1NC(=O)CCNC(=O)c1ccc(Br)cc1	-4%	-5%
92	CC1(C)CC(=O)C(C=Nc2ccccc2)=C(O)C1	-16%	-12%
93	CC1CCc2c(nc3ncnn3c2N2CC(C)OC(C)C2)C1 (configuration not stated)	-19%	-16%
94	CCCN(CCC)Cc1c(C(=O)N/N=C/C(C)=C\c2ccco2)nnn1-c1nonc1N	10µM*	?
95	Cn1c(CCNC(=O)c2ccco2)nc2cc(NC(=O)C3CCCCC3)ccc21	-15%	-5%
96	COc1ccc(NS(=O)(=O)c2ccc(OCC(=O)N3CCN(C)CC3)cc2)cc1Cl	i	-4%
97	Cc1ccc(-n2nc(C)c3c(C)c(CCC(=O)NCc4ccccc4Cl)c(C)nc32)cc1C	-10%	-9%
98	Cc1ccc(S(=O)(=O)NC(=O)N(C)C2CCCCC2)cc1	-2%	-7%
99	CCCc1nnc(NC(=O)c2cc3ccccc3oc2=O)s1	.	-9%
100	N#Cc1cccc(NC(=O)CSc2nc3c(cc2C#N)N2CCC3CC2)c1	-23%	-17%
101	Cc1cnc(Sc2ncccc2[N+](=O)[O-])nc1	-11%	-5%
102	CCOc1ccc(NC(=O)Cn2c(=O)n(CCCCC(=O)NCCc3ccc(Cl)cc3)c(=O)c3ccccc32)cc1	-26%	?
103	Cc1ccc(N=Nc2c(N)nn(-c3ccccc3)c2N)cc1	?	?
104	O=C(CC1(C(F)(F)F)OCCO1)Nc1ccc2c(c1)OCO2	-28%	-8%
105	CS(=O)(=O)c1ccc2nc(NC(=O)CS(=O)(=O)Cc3ccccc3)sc2c1	i	-11%

More entries
item	Compound	Vaccinia mCherry	Vaccinia Venus
106	COc1ccc2nc(SCC(=O)NC3CCCC3)c(C)cc2c1	-15%	-24%
107	Cc1ccc2nc(N/N=C/c3ccccc3C#N)nc(-c3ccccc3)c2c1	-26%	-11%
108	CCOC(=O)C1=C(C)NC2=C(C(=O)CCC2)C1c1ccc(O)c(OCC)c1 (configuration not stated)	-6%	-11%
109	COc1ccc2[nH]c(=O)c(CN(C)C(=O)c3cccs3)cc2c1	-12%	-6%
110	CCSc1nnc(Nc2ccccc2)s1	.	-3%
111	CC1Oc2ccccc2N(CC(=O)N2CCCC2)C1=O (configuration not stated)	i	-5%
112	Nc1ccc(Cl)cc1C(=O)OCC(=O)NC1CCS(=O)(=O)C1 (configuration not stated)	-11%	-17%

Entries of single compounds as entered above:
O=C(c1ccc(Cl)cc1)C1CCCN(C(=O)c2csnn2)C1 (configuration not stated) reads Vaccinia mCherry: -2%; Vaccinia Venus: -1%
CCC(C)c1ccccc1NC(=O)C(C)OC(=O)c1ccco1 (configuration not stated) reads Vaccinia mCherry: -13%; Vaccinia Venus: -13%

Bioassay records (PubChem BioAssay)
